ALR inh: inhibitors of human ALR sulfhydryl oxidase, primary screen, biochemical, H2O2 detection, HRP-luminol luminescence, single point; AID 485317, 2010; purified ALR, DTT oxidation; inhibition, % (test concentration not listed); actives 3.8% (n = 290,000); FAD-linked sulfhydryl oxidase ALR (Homo sapiens), P55789;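 active = mean and each replicate at 75% or more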;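 also: stock transfer was 7.5 nL into about 7.5 µL; 0% = neutral wells and 100% = wells with inactivated enzyme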
B2AR ag: beta2AR agonists driving receptor internalization, primary screen, cell-based, FAP fluorogen, flow cytometry. response, % (concentration not given with the values). Beta-2 adrenergic receptor (Homo sapiens), P07550. AID 504454, 2011. Am2.2-beta2AR cells; reference of the scale not given here. actives 0.43% (n = 340,000);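 active = response above a set limit, near 3 SD of response in nonfluorescent compounds, cut at about 42% in these data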;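 also: stock transfer was 100 nL into about 11 µL; a reference agonist was the positive control; negative values mostly stem from fluorescent compounds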
Target sequence (P07550 whole entry, looked up): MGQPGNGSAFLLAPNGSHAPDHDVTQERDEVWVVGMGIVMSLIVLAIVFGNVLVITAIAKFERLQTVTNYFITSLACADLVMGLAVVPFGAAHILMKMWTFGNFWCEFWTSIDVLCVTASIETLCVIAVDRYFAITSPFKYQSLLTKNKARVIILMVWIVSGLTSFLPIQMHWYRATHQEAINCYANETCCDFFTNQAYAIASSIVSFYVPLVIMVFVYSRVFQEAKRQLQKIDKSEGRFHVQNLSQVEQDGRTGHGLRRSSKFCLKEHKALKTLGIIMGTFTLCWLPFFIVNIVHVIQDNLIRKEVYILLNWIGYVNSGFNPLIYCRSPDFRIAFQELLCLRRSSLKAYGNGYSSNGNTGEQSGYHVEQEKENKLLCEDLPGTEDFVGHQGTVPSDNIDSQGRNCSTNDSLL
FGF22 binding: binders of human FGF22 protein, primary screen, FGF22 synaptogenesis inhibitor project, biophysical, thermal shift, single point; Fibroblast growth factor 22 (Homo sapiens), Q9HCT0; calls only at 9.99 µM; actives 1.5% (n = 340,000); recombinant FGF22 thermal shift, SYPRO orange fluorescence; percent of sucrose octasulfate shift, DMSO zero;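 active = melting point raised past a set limit in the mean and every replicate; three in four hits are not shown here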
Target sequence (Q9HCT0 whole entry, looked up): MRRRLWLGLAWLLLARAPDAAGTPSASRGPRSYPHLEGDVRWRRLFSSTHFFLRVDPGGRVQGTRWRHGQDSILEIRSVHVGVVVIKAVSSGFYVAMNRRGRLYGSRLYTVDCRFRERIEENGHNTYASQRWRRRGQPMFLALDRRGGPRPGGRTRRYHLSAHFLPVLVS
E coli growth: E. coli growth inhibition, primary screen, OD600 | Escherichia coli growth, 23 h; hits give low values | OD600 absorbance (concentration not given with the values) | actives 0.21% (n = 330,000) | AID 1053175, 2014;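 active = OD600 absorbance below the run mean of sample wells minus 3.6 SD, in any replicate, cut at about 0.56 in these data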;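 also: stock transfer was 300 nL into about 60 µL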
rRNA inh HTS: reduced GFP signal of wild-type E. coli, primary screen, bacterial rRNA inhibitor project, GFP/RFP fluorescence, OD600, single point; E. coli WT GFP vs humanized-ribosome RFP mutants, 24 h; hits give low values; DMSO median 0, no signal -100; GFP signal change (wild-type ribosome), % (no concentration beside the values); actives 1.6% (n = 350,000);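 active = significant combined selectivity score with lowered wild-type GFP, culture density cut under 30%, mutant RFP and density less affected; inactive = any of these conditions unmet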; also: one replicate is shown; some compounds called inactive have numbers as strong as hits
HNF4A DNA FP: change in binding of human HNF4A to DNA, primary screen, biochemical, fluorescence polarization, FITC-DNA; Hepatocyte nuclear factor 4-alpha (Homo sapiens), P41235; 1 h; activity change, % at 10 µM; actives 0.3% (n = 360,000); AID 1224865, 2016; in the data active = activity change above about 30%, passing the limit was not always enough;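 also: controls were the assay level and a saturating level of protein; the project sought stronger binding though the title names inhibitors; some compounds called inactive have numbers as strong as hits; positive values seem to mean higher polarization but the record does not say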
UCH37 inh: inhibitors of human UCH37 deubiquitinase, primary screen, biochemical, Ub-AMC cleavage, fluorescence; purified proteasome/UCH37; inhibition, % (concentration not given with the values); actives 0.33% (n = 330,000);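 active = mean of two replicates above 20%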;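 also: 0% = compound-free wells with enzyme and 100% = wells lacking proteasome; stock transfer was 100 nL into about 20 µL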
Target sequence (Q9Y5K5 whole entry, looked up): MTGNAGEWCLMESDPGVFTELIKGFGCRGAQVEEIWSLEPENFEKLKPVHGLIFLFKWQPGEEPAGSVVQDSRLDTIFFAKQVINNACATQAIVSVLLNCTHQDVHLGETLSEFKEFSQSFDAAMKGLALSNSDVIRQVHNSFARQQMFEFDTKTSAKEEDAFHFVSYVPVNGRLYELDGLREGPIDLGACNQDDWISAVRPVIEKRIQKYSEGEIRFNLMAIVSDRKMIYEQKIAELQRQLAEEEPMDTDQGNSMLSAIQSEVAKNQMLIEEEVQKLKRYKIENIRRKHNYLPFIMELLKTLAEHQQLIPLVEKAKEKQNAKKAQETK
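Assay system: Proteasome-bound UCH37. Buffer or medium: pH 7.4 Tris-HCl (50 mM) with ovalbumin, ATP-MgCl2, DTT. Incubation: 30 min preincubation with enzyme, 25 min cleavage at room temperature. Measured by: fluorescence, ex 355 nm, em 460 nm. Read-out basis: percent inhibition. Control set: wells without proteasome as full block, compound-free enzyme plus substrate as uninhibited.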
rRNA inh HTS OD600: recorded beside rRNA inh HTS, whose call it bears; OD600 change, %; measured here: OD600 growth;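 optical density of the mix in the first replicate; 0 = DMSO median and -100 = no signal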
rRNA inh HTS RFP: recorded beside rRNA inh HTS, whose call it bears; RFP signal change, %; measured here: RFP humanized mutant strains;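 first replicate; 0 = DMSO median and -100 = no signal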
An asterisk follows results filed as active; i = inactive; . = not tested or not shown; & = joins results of further samples. Some of the compounds tested (hit frequency here may not be typical).

Below each SMILES: rRNA inh HTS, E coli growth, HNF4A DNA FP, FGF22 binding, UCH37 inh, ALR inh, B2AR ag, rRNA inh HTS OD600, rRNA inh HTS RFP
- COc1ccc(/C=C/c2noc(-c3ccccc3OC(C)=O)n2)cc1
→ 9, 0.67, 2.4, i, 3.1, -7, -2, 4, -0.2
- CS(=O)(=O)c1ccc2nc(NC(=O)CCNC(=O)c3ccc(Cl)cc3)sc2c1
→ 2, 0.69, 0.7, ., 3.1, ., 4, 4, -2.4
- COC(=O)NNC(=O)CCCOc1ccc(Cl)cc1Cl
→ -4, 0.68, 5.7, i, 5.7, -2, -1, 7, 3.9
- Cc1cc(N2CCCCC2)nc(N)n1
→ ., 0.71, 2.1, i, 0.4, 2, -14, ., .
- Cc1ccc(C(=O)N2NC(c3ccccc3F)C3C(=O)N(c4cccc(C)c4)C(=O)C32)cc1 (configuration not stated)
→ 5, ., -2.2, i, ., -7, 3, -1, 0.0
- COc1ccc(OC)c(NC(=O)CC2SC(=Nc3ccccc3)N(CCc3ccccn3)C2=O)c1 (configuration not stated)
→ -17, 0.66, 2.7, i, 1.6, -33, -12, -12, 4.2
- COc1cccc(S(=O)(=O)N(C)C[C@@H]2Oc3cc(C#CCN(C)C)ccc3S(=O)(=O)N([C@H](C)CO)C[C@@H]2C)c1
→ -3&-3, ., 1.3, i, ., ., ., -4&7, 1.8&-5.8
- O=S(=O)(c1ccccc1)N(C1=NCCS1)S(=O)(=O)c1ccccc1
→ ., 0.69, 4.0, ., 0.7, -7, 0, ., .
- CCOC(=O)c1nnn(-c2nonc2N)c1-c1ccccc1Cl
→ -16, ., 0.2, i, ., -1, -8, -32, -1.2
- C/C=C\C=C/C(=O)Nc1cccc(C2=NOC3(C2)C[C@@H](C(N)=O)N(C(=O)/C=C/CC)C3)c1 (some centres not stated)
→ ., ., -3.9, ., 3.4, -4, -3, ., .

Molecules listed so far that contain two or more sulfur atoms (three):
Below each SMILES: rRNA inh HTS, E coli growth, HNF4A DNA FP, FGF22 binding, UCH37 inh, ALR inh, B2AR ag, rRNA inh HTS OD600, rRNA inh HTS RFP
- CS(=O)(=O)c1ccc2nc(NC(=O)CCNC(=O)c3ccc(Cl)cc3)sc2c1
→ 2, 0.69, 0.7, ., 3.1, ., 4, 4, -2.4
- COc1cccc(S(=O)(=O)N(C)C[C@@H]2Oc3cc(C#CCN(C)C)ccc3S(=O)(=O)N([C@H](C)CO)C[C@@H]2C)c1
→ -3&-3, ., 1.3, i, ., ., ., -4&7, 1.8&-5.8
- O=S(=O)(c1ccccc1)N(C1=NCCS1)S(=O)(=O)c1ccccc1
→ ., 0.69, 4.0, ., 0.7, -7, 0, ., .

Later entries.
Below each SMILES: rRNA inh HTS, E coli growth, HNF4A DNA FP, FGF22 binding, UCH37 inh, ALR inh, B2AR ag, rRNA inh HTS OD600, rRNA inh HTS RFP
- O=C(Nc1ccccc1C(=O)NCc1cccnc1)c1cccc([N+](=O)[O-])c1
→ 10, 0.7, -5.2, i, 1.3, 1, -8, 4, -1.8
- N#Cc1ccccc1NC(=O)C1CC(=O)N(c2ccc3c4c(cccc24)CC3)C1 (configuration not stated)
→ ., 0.72, 0.9, i, 6.0, -4, -2, ., .
- O=C(NCc1ccco1)c1sc2cc(F)ccc2c1Cl
→ -26, 0.65, 0.0, ., 1.9, 5, 0, -22, -1.0
- CCc1ccc(NC(=O)c2cc(-c3cccs3)on2)cc1
→ 4, 0.67, 4.4, i, -1.1, -2, 13, -1, -1.1
- CCCc1nc(SCC(=O)N2CCOCC2)c2c(C)c(C)sc2n1
→ -9, 0.68, 3.6, i, 0.5, -5, -23, -23, -1.6
- CCOC(=O)c1nn(-c2ccc([N+](=O)[O-])cc2)cc1O
→ 0, 0.67, 1.7, i, 11, 4, 11, 7, -10
- COc1ccc(N(C)S(=O)(=O)c2cccc(C(=O)OC(C(=O)Nc3cc(C)cc(C)c3)c3ccccc3)c2)cc1 (configuration not stated)
→ 17, 0.73, 1.9, i, 0.6, -22, 10, -2, 0.0
- Cc1ccc(Cl)c(OCC(=O)Nc2sc(C)c(C)c2C#N)c1
→ 6, 0.69, -0.3, i, -1.6, -2, 5, 7, 2.1
- COc1ccc(S(=O)(=O)NC(=O)C2(C)CCN2C(=O)Cc2cccc3ccccc23)cc1 (configuration not stated)
→ 8, ., 0.3, i, ., ., ., 7, 1.9
- O=C(CNS(=O)(=O)c1ccccc1)Nc1ccc2c(c1)OCO2
→ 2, 0.69, -5.1, i, 5.0, -5, 3, 4, 2.6
- CC(=O)c1cccc(NC(=O)c2ccoc2C)c1
→ 1, 0.67, -2.9, i, 2.3, 1, 5, 4, 2.0
- CCOC(=O)C1=CCN(S(=O)(=O)c2ccc(F)cc2)C1c1ccccc1 (configuration not stated)
→ -19, ., 0.1, i, ., ., ., -55, -12
- COC(=O)[C@@H](NC(=O)N1CCC(Cc2ccccc2)CC1)C(C)C
→ 4, 0.67, -0.8, i, 2.4, -3, 7, 12, 1.6
- O=C(NCC(=O)N(c1ccccc1F)C(C(=O)NC1CCCC1)c1ccco1)c1ccco1 (configuration not stated)
→ 3, 0.69, 2.7, ., -0.9, -9, -7, 4, 2.0
- CCOc1ccc(CCNC(=O)C2CC(=O)N(c3ccccc3OCC)C2)cc1OCC (configuration not stated)
→ 1, 0.63, 5.3, i, 1.4, -31, -2, 6, 0.5
- O=C(CCc1nnc(-c2ccccc2)o1)NC1CCCCC1
→ 3, 0.69, -0.7, i, 3.2, ., 12, 3, 11
- Cc1ccc(N(CC(=O)NCc2ccccn2)S(=O)(=O)c2ccccc2)cc1Cl
→ -30, 0.74, -2.7, i, 0.4, -20, 5, -37, -3.4
- Cc1ccc2cc(CN(Cc3cccs3)Cc3nnnn3CC3CCCO3)c(=O)[nH]c2c1 (configuration not stated)
→ -29*, 0.72, 3.3, i, 0.1, -19, -20, -12*, 1.5*
- CC1(C(=O)NS(=O)(=O)c2ccccc2Cl)CCN1C(=O)C1(c2ccccc2)CC1 (configuration not stated)
→ 2, ., 3.2, i, ., ., ., 10, 2.5
- Cn1ccnc1SCC(=O)c1c(N)n(C)c(=O)n(C)c1=O
→ 10, 0.71, -1.6, i, 0.1, -4, -2, 14, 0.8
- Cc1ccc(OCc2nc(C#N)c(N3CCN(Cc4ccccc4)CC3)o2)cc1
→ ., 0.73, 1.1, ., 0.6, -4, 0, ., .
- Cc1cc(C)cc(C(=O)NC(CC(N)=O)c2ccc(NC3CCCCCCCCCCC3)c([N+](=O)[O-])c2)c1 (configuration not stated)
→ 14, 0.79, -4.9, i, -0.1, 3, 6, 17, 0.0
- CCCNC(=O)c1ccccc1NC(=O)c1ccccc1N(C)S(C)(=O)=O
→ ., 0.77, 4.5, ., 0.2, -1, 0, ., .
- CCn1ncc(/C=C2/SC(=S)NC2=O)c1C
→ ., 0.72, -0.1, ., 7.0, 9, 23, ., .
- Cc1ccc(-c2ccc(C3C(C#N)=C(N)Oc4n[nH]c(C)c43)o2)cc1 (configuration not stated)
→ ., 0.65, 5.4, ., 1.1, 17, 17, ., .
- CCCCNC(=O)c1cc(C)nn1-c1ccccc1
→ 9, 0.66, -1.3, i, 5.2, -38, 2, 10, 1.6
- CCOc1cccc(C(=O)Nc2cccc(C(=O)NCC(C)C)c2)c1
→ -6, 0.62, -1.7, i, 1.5, -2, -15, 2, -5.6
- O=C(NCCN1CCOCC1)N1CCOCC1
→ ., 0.63, -0.9, ., 2.0, -10, 7, ., .
- Cn1c(=O)n(C)c2cc(NC(=O)CSc3nc4ccccc4c(=O)[nH]3)ccc21
→ 6, 0.68, -0.1, i, 5.8, -1, -2, 20, 1.0
- Cc1ccccc1CNC(=O)C1CCN(c2nnc(N3CCCC3=O)s2)CC1
→ 4, ., -0.7, i, ., 11, -12, 12, -8.1
- O=C(NC1CCCc2ccccc21)c1cccc(F)c1 (configuration not stated)
→ 3, ., -2.0, i, ., ., 2, 3, -2.3
- Fc1ccccc1/C=N/n1cnnc1
→ ., ., 2.8, ., ., -9, -2, ., .
- Cc1noc(C)c1N=Nc1ccc(Br)cc1C(=O)O
→ 13, 0.66, 0.5, i, 7.7, -2, -2, 8, 1.9
- CCOC(=O)c1c(C)n(CC)c2c1cc(O)c1ccccc12
→ -2, 0.65, -1.3, i, -1.8, -5, 2, -4, 2.6
- COc1ccc(CNC(=O)CN(Cc2ccc(C)cc2)C(=O)c2csnn2)cc1
→ -3, 0.71, -1.3, i, 4.2, -3, -3, -4, 2.2
- COC(CC(=O)NNC(=S)Nc1ccc(Cl)cc1)OC
→ 5, 0.7, 1.0, i, 4.1, 59, 4, 3, 3.3
- COc1ccc(C2N=C(N)N=C(N)N2c2ccc(C)cc2)cc1 (configuration not stated)
→ ., 0.72, -4.1, ., 4.1, 1, -5, ., .
- Cc1ccc(C(=O)OCC(=O)Nc2cc(F)ccc2F)cc1NC(=O)c1ccco1
→ ., 0.69, 2.4, ., 0.7, 0, -14, ., .
- COc1ccccc1CCn1c(N)cc(=O)[nH]c1=O
→ 5, 0.69, -2.5, i, 0.2, -3, 1, 11, -1.5
- CCOc1ccc(NS(=O)(=O)c2ccc(-c3coc(C)n3)cc2)cc1
→ -1, 0.68, -2.0, i, 1.3, -1, 1, -4, 3.6
- O=C(c1ccoc1)N1CCN(c2cc(-c3ccco3)nc3cc(-c4ccccc4)nn23)CC1
→ -13, ., 2.0, i, ., ., ., 13, 8.5
- CCN(CC)S(=O)(=O)c1ccc(N/N=C/c2ccc(O)cc2)nc1
→ -20, ., -3.0, i, ., 99*, 13, -12, -0.2
- Cn1c(=O)n(C)c(=O)n(CC(=O)N2CCCCC2)c1=O
→ ., 0.65, -0.6, ., 4.2, 1, 0, ., .
- O=C(COc1ccc2ccccc2c1)Nc1nccs1
→ -22*, 0.66, 4.8, i, 0.1, -19, -2, -17*, -3.2*
- O=C(CCS(=O)(=O)c1ccccc1)Nc1ccccn1
→ 0, 0.68, -3.4, i, 6.3, -10, -3, 8, 0.1
- C=CCSc1nc(C)c2cc(C)cc(C)c2n1
→ ., 0.73, 2.3, ., -2.9, -15, -4, ., .
- NC(=O)C1CCN(c2nc(-c3cccs3)cs2)CC1
→ ., ., -2.1, ., ., 1, 7, ., .
- CCOc1ccccc1N1C(=O)c2cccnc2C1=O
→ 7, 0.76, 3.3, i, 4.6, -5, -4, 9, 2.8
- Cc1cccc(N2CC(C(=O)Nc3nnc(SCCN4CCOCC4)s3)CC2=O)c1 (configuration not stated)
→ -2, 0.69, 2.9, i, 3.1, -4, 13, 1, 2.6

High-throughput results: PubChem BioAssay, several laboratories
